Screens from PubChem BioAssay.
D2 potentiator – human D2 receptor positive allosteric modulation. P14416. DiscoveRx D2 beta-arrestin cells, luminescence, 90 min; 100% = 57 uM dopamine signal. potentiation, % (concentration not given with the values). 0.23% of 360,000 active. AID 624464; active = potentiation of 50% or more; inconclusive = 30% to 50%; inactive = 30% or less;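 further: compound concentration not given in the record; tested on top of an EC20 dose of dopamine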
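PathHunter beta-arrestin assay in DiscoveRx D2 cells. Compounds were added with an EC20 of dopamine (50 nM final) for 90 min at 37 deg C. Luminescence was read 1 h after detection reagent, with 57 uM dopamine as the EC100 control.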
Six1-Eya2 blk – inhibitors of human Six1/Eya2 interaction; AlphaScreen GST-Six1/His-Eya2 binding, biochemical; hits give low values; control for the full effect not named in the record; activity change, % (no concentration beside the values); 0.56% of 360,000 active; in the data active = activity change below about -65%; inconclusive = about -30% to -65%; inactive = above about -30%; further: on the % scale 0 is the no-effect control and ±100 the full control effect; compound concentration not given in the record
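Compounds are tested against tagged Six1 and Eya2 proteins bridged by glutathione donor and nickel acceptor beads; after a one-hour incubation at 37 °C without light, AlphaScreen emission is recorded.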
D2 agonist – agonists of human D2 dopamine receptor (beta-arrestin). 0.084% of 360,000 active. AID 624465. DiscoveRx PathHunter D2 beta-arrestin, luminescence, 90 min; 100% = 57 uM dopamine signal. P14416. activation, % (no concentration beside the values); in the data active = activation above about 40%; inconclusive = about 15% to 40%; inactive = below about 15%; further: compound concentration not given in the record; the text of the record calls up to 30% inactive
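DiscoveRx PathHunter D2 beta-arrestin cells (2,100/well) attached overnight, then compound-stimulated 90 min at 37 C in HBSS/10 mM HEPES/0.1% Tween-20 buffer; beta-galactosidase complementation read by luminescence after 1 h at ambient temperature. Dopamine 57 uM final (EC100) as control.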
Sfp PPTase inh – blocks B. subtilis Sfp PPTase activity; Biochemical Sfp PPTase activity, qHTS; Potency, µM, without a hit: max response, negative = inhibition, usual class: inhibitors; 3.5% of 310,000 active; active means well fitted inhibition curve with a large enough effect; inconclusive means small, poorly fitted or top-dose-only effect, or another doubt; inactive means no such curve, though single readings can be large or run the other way;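 further: the enzyme is Sfp with the accession as filed and its product quenches rhodamine fluorescence; potency means the concentration at half of the fitted maximal effect; 0% = enzyme reaction without inhibitor and -100% = no enzyme wells; top concentration of the series not given in the record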
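Step 1, compound plus 15 nM Sfp-PPTase, 15 min, room temperature. Step 2, add rhodamine-CoA (5 uM) and BHQ-2-YbbR (12.5 uM). Step 3, read 525/598 nm fluorescence at 0 and 30 min.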
CtBP-E1A inh – CtBP/E1A binding inhibition | AlphaScreen GST-E1A/His-CtBP binding, 1536-well; hits give low values; control for the full effect not named in the record | activity change, % (concentration not given with the values) | 0.49% of 340,000 active; in the data active means activity change below about -65%; inconclusive means about -30% to -65%; inactive means above about -30%; further: on the % scale 0 is the no-effect control and ±100 the full control effect
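Steps: dispense buffer (Tris pH 8.0, NaCl 300 mM, TCEP 1 mM, BSA, Tween 20); add 5X protein mix (GST-E1A, His-CtBP, 125 nM each); pin 23 nL compound; 2 h at 37 °C, dark; add 5X beads (50 ug/mL); 1 h; read.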
PINK1 expr mod – changes PINK1 expression; PINK1 immunofluorescence, high-content cytometry, 24 h; Potency, µM (top dose mostly 76.6 µM), for the others: top-dose activation (PINK1 increase), actives largely listed as activators; 0.2% of 410,000 active; AID 624263; active = well fitted activation curve with a large enough effect; inconclusive = small, poorly fitted or top-dose-only effect; inactive = flat fitted curve, though single readings scatter; cell line not stated here;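 further: potency means the concentration at half of the fitted maximal effect; % of control where 0% means no effect; nearly all actives have a fitted effect of over 65% in size; a mitochondrial uncoupler was the plate control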
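Readout is PINK1 immunofluorescence, quantified alongside mitochondrial, cell and nuclear markers by laser-scanning microplate cytometry. Cells from a stable line were exposed to compound titrations (5 concentrations) for 24 hours, with CCCP controls.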
TRPV1 potentiator – potentiators of human vanilloid receptor 1 (TRPV1). TRPV1-expressing cells, Fluo-8 calcium influx, capsaicin EC20 potentiation; host cell line not named in the record; control for the full effect not named in the record. AID 540277. 0.02% of 320,000 active. Q8NER1. potentiation, % at 8.33 µM; active means potentiation above 80%; inconclusive means 30% to 80%; inactive means below 30%; further: 0% is about no effect
Target sequence (Q8NER1 whole entry, looked up): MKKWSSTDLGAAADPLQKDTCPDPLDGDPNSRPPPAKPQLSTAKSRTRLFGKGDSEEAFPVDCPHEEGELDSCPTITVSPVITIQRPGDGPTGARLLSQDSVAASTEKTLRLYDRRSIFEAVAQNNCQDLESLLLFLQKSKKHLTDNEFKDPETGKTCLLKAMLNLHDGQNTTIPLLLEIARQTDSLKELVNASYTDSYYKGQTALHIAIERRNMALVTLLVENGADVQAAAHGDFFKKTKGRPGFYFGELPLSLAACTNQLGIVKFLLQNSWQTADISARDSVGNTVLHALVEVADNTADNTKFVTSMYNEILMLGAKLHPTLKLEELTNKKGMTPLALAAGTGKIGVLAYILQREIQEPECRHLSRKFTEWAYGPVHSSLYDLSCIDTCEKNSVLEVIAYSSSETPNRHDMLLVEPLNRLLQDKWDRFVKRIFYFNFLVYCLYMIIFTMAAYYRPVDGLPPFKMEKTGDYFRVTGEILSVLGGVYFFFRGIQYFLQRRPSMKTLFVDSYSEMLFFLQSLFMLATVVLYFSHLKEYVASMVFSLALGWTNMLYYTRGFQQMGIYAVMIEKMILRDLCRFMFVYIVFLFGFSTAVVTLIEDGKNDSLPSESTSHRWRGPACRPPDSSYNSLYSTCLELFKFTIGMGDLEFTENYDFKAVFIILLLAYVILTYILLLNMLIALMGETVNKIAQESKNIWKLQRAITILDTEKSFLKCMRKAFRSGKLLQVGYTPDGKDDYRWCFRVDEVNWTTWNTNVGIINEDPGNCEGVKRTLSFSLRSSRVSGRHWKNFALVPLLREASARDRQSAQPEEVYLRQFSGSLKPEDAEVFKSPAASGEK
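Cells expressing TRPV1 were dye-loaded with Fluo-8 and read kinetically: 10 s baseline, 3 min after compound (agonist portion), then 2 min after EC20 capsaicin (allosteric enhancer portion). Calcium-bound dye fluorescence at 480/520 nm.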
* = called active by the depositor; ? = inconclusive; nt = not tested or not shown; & = joins results of further samples; [ ] = remark or other dose.

Values in the order: D2 potentiator	Six1-Eya2 blk	D2 agonist	Sfp PPTase inh	CtBP-E1A inh	PINK1 expr mod	TRPV1 potentiator
> COc1cc2[nH]c(=O)n(CCCCCC(=O)N3CCN(c4ccccn4)CC3)c(=O)c2cc1OC
→ -10	-1	-1.1	-13%	-10	-0.8%[38.3 µM]	9
> CC1=NN(S(=O)(=O)c2ccc(Cl)cc2Cl)C(=O)c2ccccc2O1
→ -7	10	-4.4	17%	5	1.9%	-12
> CCOc1ccc(C(=O)O/N=C(\N)c2ccccn2)cc1OCC
→ 12	0	9.4	0%	0	1.1%	2
> O=C1OC(Nc2ccc(F)cc2F)c2ccccc21 (stereo not given)
→ -1	5	-0.9	15%	8	-1.7%	10
> Cc1cc(OC(=O)c2c(F)cc(F)cc2F)nc(C)n1
→ 6	-1	-2.3	22%	-10	0.3%	10
> O=C(Cn1nnc2ccccc2c1=O)N1CCOCC1
→ -13	1	1.6	8%	17	-2.0%	0
> CCn1nnc(-c2ccccc2NS(=O)(=O)c2ccc(S(=O)(=O)N3CCCCCC3)cc2)n1
→ -3	3	-1.0	5%	6	?	-1
> CCOCCOC(=O)c1cccc(NC(=O)OCC)c1
→ -18	6	-0.5	-3%	-2	0.2%	nt
> Cc1ccc(-n2c(CNc3ccc(F)cc3)nnc2SCC(=O)N2CCOCC2)cc1
→ -34	1	-4.7	13%	-1	-1.0%	0
> CCc1oc2c(C)c(O)ccc2c(=O)c1-c1ccc2ccccc2n1
→ -14	0	3.0	-1%	-1	9.8%[38.3 µM]	-11
> CCOC(=O)N1CCN(CC(=O)Nc2nc3ccc(OC)cc3s2)CC1
→ 2	-5	2.3	4%	nt	-0.4%	-22
> COCCSc1ccccc1C(=O)Nc1cc(C)cc(C)c1
→ -11	1	-3.0	?	nt	-1.4%	8
> COC(=O)C(NS(=O)(=O)c1cccc(S(=O)(=O)NC(C(=O)OC)c2ccccc2)c1)c1ccccc1 (stereo not given)
→ -14	-8	-2.5	16%	0	2.5%	3
> COc1ccc(CCNC(=O)CN2C(=O)c3ccccc3C2=O)cc1
→ -4	2	0.2	9%	0	0.5%[38.3 µM]	7
> COCCN(C(=O)CSc1nnc(C)n1Cc1ccccc1)c1c(N)n(Cc2ccccc2)c(=O)[nH]c1=O
→ 0	2	-4.7	6%	4	1.7%	-13
> CCOC(=O)c1ccccc1NC1CC(=O)N(c2ccccc2C)C1=O (stereo not given)
→ -9	11	-4.0	79µM*	2	1.8%	5
> Brc1ccc(C2=Nn3c(Cn4nnc5ccccc54)nnc3SC2)cc1
→ -12	-5	-3.8	28µM*	-25	5.2%	-1
> Oc1ccc(Nc2ncnc3c2oc2ccccc23)cc1
→ -2	-9	-9.2	-11%	nt	0.2%	-3
> O=C(c1ccc(OC2CCN(Cc3ccccc3C(F)(F)F)CC2)cc1)N1CCCCC1
→ -21	-8	-2.6	-9%	-5	-1.5%	-8
> CCC(CC)C(=O)c1c[nH]c(C(=O)NCC2CCCO2)c1 (stereo not given)
→ -10	3	-2.1	7%	9	-0.1%	-7
> O=C(Nc1ccnn1C1CCN(C/C=C/c2ccccc2)CC1)c1ccccc1Cl
→ -14	-5	?	6%	0	0.8%	9
> O=C(O)c1cccc(NC(=S)NC(NC(=O)c2cccc([N+](=O)[O-])c2)C(Cl)(Cl)Cl)c1 (stereo not given)
→ -7	?	-3.5	7%	-19	1.2%	29
> CN(C)C(CNC(=O)Cc1ccc([N+](=O)[O-])cc1)c1ccccc1 (stereo not given)
→ 3	-2	-7.3	11%	-9	-0.2%	?
> NC(=O)c1c(NC(=O)Cn2nc(C(=O)O)c3ccccc3c2=O)sc2c1CCC2
→ -3	-6	5.5	?	-20	7.2%	nt
> Fc1ccc(/C=N/NC2=Nc3cccc4cccc2c34)cc1
→ -39	-22	-6.1	?	-1	?	2
> CC(C)(C)NC(=O)Nc1ccc(F)c(Cl)c1
→ -3	2	-0.2	5%	-6	0.7%	-16
> COc1ccc(-c2nc(CS(=O)CC(=O)NC3CCCCC3C)c(C)o2)cc1OC (stereo not given)
→ -4	3	-1.2	0%	nt	0.2%	16
> Cc1noc(C)c1CSc1nnc2scc(-c3ccccc3)n12
→ -2	1	-2.1	18%	-2	-1.0%	1
> N#Cc1cccc(S(=O)(=O)N2CCN(c3ccnc4cc(Cl)ccc34)CC2)c1
→ 1	-6	1.1	-5%	1	-0.3%	-1
> CCOC(=O)C1(Cc2ccccc2)CCCN(C(=O)c2ccc(-n3ccnc3)cc2)C1 (stereo not given)
→ -3	-2	-3.7	13%	-5	-0.8%	-1
> Cc1csc(NC(=O)CSc2nnc(CCNC(=O)c3cccs3)n2C)n1
→ 0	-4	4.7	0%	-6	-0.2%	3
> COC(=O)c1ccccc1NC(=O)CN1CCC(NC(=O)c2ccc(C)cc2)CC1
→ -4	1	1.5	-6%	-12	-1.8%	-19
> CC(=O)Nc1ccc(C(=O)N2CC(=O)NC(=O)C2)cc1
→ -8	2	-1.9	15%	4	0.3%	10
> CCOc1ccc(N2CC(C(=O)Nc3cc(C)on3)CC2=O)cc1 (stereo not given)
→ -8	22	0.4	21%	9	-0.2%	-1
> O=C(CNS(=O)(=O)c1ccc(F)cc1)N1CCN(c2ccccc2)CC1
→ 10	3	0.2	5%	0	3.2%[38.3 µM]	-16
> CCOc1ccc(-n2c(SCC(=O)NCc3ccco3)nc3c([nH]c4ccccc43)c2=O)cc1
→ -1	-1	0.2	nt	0	12%[38.3 µM]	nt
> Cc1ccccc1NC(=O)c1c2c(nc3ccccc13)CCC2
→ -3	-4	?	15%	20	4.6%	1
> COc1ccccc1NC(=S)NC(C)=O
→ -7	3	-0.5	14%	10	0.6%	0
> CCOC(=O)Cc1csc(NC(=O)Nc2ccc(C)cc2)n1
→ 0	4	-2.7	0%	-1	0.4%	1
> COc1c(C)cccc1C(=O)Nc1ccc(OCC(=O)N2CCOCC2)cc1C
→ 12	3	1.1	-1%	-2	0.1%	12

Some of these compounds in order of formula weight, smallest number first.
Values in the order: D2 potentiator	Six1-Eya2 blk	D2 agonist	Sfp PPTase inh	CtBP-E1A inh	PINK1 expr mod	TRPV1 potentiator
> CC(=O)Nc1ccc(C(=O)N2CC(=O)NC(=O)C2)cc1
→ -8	2	-1.9	15%	4	0.3%	10
> CCOC(=O)Cc1csc(NC(=O)Nc2ccc(C)cc2)n1
→ 0	4	-2.7	0%	-1	0.4%	1
> O=C(CNS(=O)(=O)c1ccc(F)cc1)N1CCN(c2ccccc2)CC1
→ 10	3	0.2	5%	0	3.2%[38.3 µM]	-16

One compound at a time (already shown). Values in the order: D2 potentiator, Six1-Eya2 blk, D2 agonist, Sfp PPTase inh, CtBP-E1A inh, PINK1 expr mod, TRPV1 potentiator
Profile of CN(C)C(CNC(=O)Cc1ccc([N+](=O)[O-])cc1)c1ccccc1 (stereo not given) → 3, -2, -7.3, 11%, -9, -0.2%, ?
Profile of NC(=O)c1c(NC(=O)Cn2nc(C(=O)O)c3ccccc3c2=O)sc2c1CCC2 → -3, -6, 5.5, ?, -20, 7.2%, nt

Other entries follow.
Values in the order: D2 potentiator	Six1-Eya2 blk	D2 agonist	Sfp PPTase inh	CtBP-E1A inh	PINK1 expr mod	TRPV1 potentiator
> CC1=Nc2cc(C(=O)N3CCCC3)ccc2Sc2c(C)ccc(C)c21
→ -5	11	1.8	-6%	nt	1.1%	-8
> Cn1c(=O)c2c(nc(N/N=C/c3ccc(OC(=O)c4ccco4)cc3)n2Cc2ccccc2Cl)n(C)c1=O
→ -1	13	3.7	-15%	-1	1.8%	-1
> COc1ccc(CCN(C)CC(O)c2ccccc2)cc1OC (stereo not given)
→ 1	-6	-7.9	?	0	2.9%	2
> COc1ccc(C(C)=O)cc1CSc1nc2nc(C)cc(C)n2n1
→ -24	0	-1.9	4%	0	0.2%	-4
> O=C1N(Cc2ccccc2)c2ccccc2OC1(F)F
→ -6	28	8.1	nt	32	2.7%	nt
> O=C(NCc1ccccc1CN1CCCC1)c1cc2ccccc2o1
→ -4	0	-4.2	nt	-11	2.3%	-12
> CCOC(=O)c1c(C)[nH]c(C(=O)COC(=O)c2ccc(N3CCCC3=O)cc2)c1C
→ -3	0	-0.4	-9%	-6	-0.8%	21
> O=C(O)CCCn1cc(NC(=O)COc2ccccc2F)cn1
→ 2	-1	-0.1	7%	7	-0.7%&-1.7%	?
> Cc1ccc(-c2c[n+](CC(=O)N3c4ccccc4Sc4ccccc43)c3n2CCC3)cc1
→ -33	-7	-0.1	-15%	-15	27%	4
> CC(=O)N1N=C(c2ccc(C)o2)CC1c1ccc(Br)cc1 (stereo not given)
→ -3	-11	2.8	-2%	-17	-4.6%[38.3 µM]	-7
> Cc1cc(=O)n2nc(N3CCCC(C(=O)NCc4ccc(F)cc4)C3)sc2n1 (stereo not given)
→ -7	-1	-3.9	17%	2	0.4%	-10
> COc1cccc(N(C(=O)C2CSC(=O)C2)C(C(=O)NC(C)(C)C)c2ccncc2)c1 (stereo not given)
→ -3	13	-4.0	19%	nt	3.5%	-26
> O=C(Nc1cccc(F)c1)c1cc(S(=O)(=O)NCCC2=CCCCC2)ccc1F
→ -11	3	-8.2	6%	1	28%	4
> COc1ccc(C)cc1NC(=O)CN(C)S(=O)(=O)c1cccs1
→ -3	2	2.9	17%	5	-2.5%	-7
> N#Cc1ccc(NC(=O)N2CCC(c3nc4c(nnn4Cc4cccc(Cl)c4)c(=O)[nH]3)CC2)cc1
→ -4	-5	1.3	-9%	0	?	3
> COc1cc2ccc(=O)oc2c(O)c1OCC=C(C)C
→ 8	-2	0.1	-2%&15%	-6	nt	2
> COc1cc(C(=O)Nc2ccc3c(c2)Cc2cc(NC(=O)c4cc(OC)c(OC)c(OC)c4)ccc2-3)cc(OC)c1OC
→ -4	3	1.3	19%	9	1.2%	18
> O=C(NCc1cccnc1)c1ccc(NS(=O)(=O)c2ccc(F)cc2)cc1
→ 1	5	-4.6	6%	-1	-0.8%	11
> CCN(CC)S(=O)(=O)c1cc(NC(=O)c2ccc(Br)s2)ccc1C
→ -5	-16	-0.1	39%	-11	8.2%	-12

Two records drawn at random from those above, as already listed:
Values in the order: D2 potentiator	Six1-Eya2 blk	D2 agonist	Sfp PPTase inh	CtBP-E1A inh	PINK1 expr mod	TRPV1 potentiator
> COc1ccccc1NC(=S)NC(C)=O
→ -7	3	-0.5	14%	10	0.6%	0
> CCOc1ccc(N2CC(C(=O)Nc3cc(C)on3)CC2=O)cc1 (stereo not given)
→ -8	22	0.4	21%	9	-0.2%	-1
